Screening results: PubChem BioAssay, several laboratories
Sa ugtP lethal = kills S. aureus RN4220 lacking UgtP | S. aureus RN4220 ugtP deletion, OD600 growth, 16 h; some inactives read as strong as hits | growth inhibition, % (no concentration beside the values) | 330,000 compounds, 0.54% hits | AID 1259309;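 active = z-score under -3 and OD600 up to 0.15 on both plates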;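 note: plate controls were untreated wells for no effect and antibiotic for full effect; wells of about 80 µL received 100 nL stock; the first replicate is given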
PrP UTR inh = suppresses PrP 5' UTR mRNA reporter expression; cell-based PrP 5' UTR mRNA reporter, plate reader; inhibition, % (concentration not given with the values); 340,000 compounds, 0.35% hits; AID 488862;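 active = every replicate at 50% or more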;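 note: 0 = median of the neutral control wells; tested in H4 reporter cells; numbers are from one replicate; inactives centre near -14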
Mtb hypoxia inh = reduces hypoxia-regulated biosensor signal in M. tuberculosis; M. tuberculosis hypoxia-regulated fluorescent reporter, fluorescence; fluorescence inhibition, % (no concentration beside the values); 300,000 compounds, 0.1% hits;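 active = 35 to 45% if threefold the growth effect, above 45% if 1.5-fold the growth effect; inactive = the rest, general growth blockers included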;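 note: wells of about 50 µL received 100 nL stock; 0% = vehicle wells and 100% = reference inhibitor wells; whole bacteria with a GFP reporter of the hypoxia response; strong numbers were not always called active; many hits fall short of the cut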
Sa RN4220 lethal = kills Staphylococcus aureus RN4220; S. aureus RN4220 growth, OD600, 16 h; inhibition, % (test concentration not listed); 330,000 compounds, 0.33% hits; AID 1259311;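 active = z-score of -3 or lower and OD600 up to 0.18 on both plates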;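 note: plate controls were untreated cells for no effect and reference antibiotic for full effect; stock transfer was 100 nL into about 80 µL; one replicate is shown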
Bead autofluor = flagged as autofluorescent in microsphere protease counterscreen. AID 624483. compound autofluorescence counterscreen, microsphere flow cytometry; hits give high values. 360,000 compounds, 3.1% hits. fluorescence intensity (no concentration beside the values);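 active = at least 3 SD above the mean of all compounds, about 16000 in these data; inconclusive = too few beads counted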;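 note: 100 nL of 1 mM stock went into each well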
BJeLR viability = kills HRASV12-expressing BJeLR cells | AID 1554 | inhibition, % (no concentration beside the values) | BJeLR (HRASV12) viability, CellTiter-Glo ATP luminescence, 48 h; reference of the scale not given here | 300,000 compounds, 0.17% hits;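 active = replicate mean above 50%; inconclusive = above 50% but judged a plate artefact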;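 note: 50 nL library stock added to about 25 µL; numbers are from one replicate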
Mtb hypoxia inh growth = recorded beside Mtb hypoxia inh, whose call it bears; growth inhibition, %; measured here: M. tuberculosis growth (absorbance);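 0% = vehicle and 100% = reference antibiotic; read after six days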
* marks the source's active call; other numbers are inactive results; ? = inconclusive; . = not tested or not shown.

SMILES	Sa ugtP lethal	PrP UTR inh	Mtb hypoxia inh	Mtb hypoxia inh growth	Sa RN4220 lethal	Bead autofluor	BJeLR viability
C=CCN1C=CC(=CC=C(C#N)C#N)C=C1	2	-36	17	7	3.1	3196	-16
CC(=NNc1nc(C)cc(-c2ccccc2)n1)c1ccccc1	5	.	14	11	5.0	.	.
Cc1cc(-c2ccccc2)nc(N/N=C/c2ccco2)n1	.	-35	.	.	.	24412*	5
CCOC(=O)c1c(C)c(C(=O)NCCN2CCOCC2)c(C)n1CC	10	-7	14	1	3.6	17127*	6
CC(C)C(NC(=O)OCc1ccccc1)C(=O)NC1CCCCC1 (centres undefined)	0	-17	7	5	8.0	1935	4
COc1ccc2c(c1)C1C=CCC1C(c1cc3c(cc1Br)OCO3)N2 (centres undefined)	56	-17	0	-3	-8.2	?	5
Cc1cc(C(=O)ON=C(N)c2ccc(C(C)(C)C)cc2)no1	18	.	9	11	1.2	.	.
Cc1[nH]ccc(=O)c1OCc1c(Cl)cccc1Cl	0	8	-11	3	2.0	4617	-8
Cc1ccsc1CNc1ncnc2ccc(-c3c(C)noc3C)cc12	46	-4	-2	8	13	3277	.
Cc1ccnc(NC(=O)C2CCCN(S(=O)(=O)c3ccc4[nH]c(=O)ccc4c3)C2)c1 (centres undefined)	6	-17	-5	-6	1.8	5160	-5
O=C(NCc1ccc2c(c1)OCO2)c1nc(S(=O)(=O)Cc2ccccc2)ncc1Cl	.	-17	.	.	.	5364	6
CS(=O)(=O)Nc1ccc(C2=NN(S(C)(=O)=O)C(c3ccccc3)C2)cc1 (centres undefined)	-8	-26	4	1	-4.8	10440	23
O=C(COc1ccccc1)NCCc1cn2ccsc2n1	0	-21	-2	0	7.6	4577	11
COC(=O)c1cn(Cc2ccccn2)c(=O)c2ccccc12	3	-19	3	-1	1.3	4240	-1
CN1CCN(C(=O)c2ccc(C3SCC(=O)N3Cc3ccco3)cc2)CC1 (centres undefined)	-5	-12	.	.	-0.2	4436	9
COc1cc(C(=S)N2CCN(C)CC2)ccc1OCC(=O)NCc1ccccc1	7	-20	4	5	1.0	3899	13
CCN1C(=O)N/C(=C/c2ccc(Sc3ccc(C)cc3)o2)C1=O	.	-23	.	.	.	2933	2
Cc1ccnc(NC(=O)CSc2nnc3c(n2)[nH]c2ccccc23)c1	5	.	2	8	1.1	.	0
COCc1cc(C)nc(OCC(=O)N/N=C/c2cccc(OC)c2)c1C#N	.	-16	.	.	.	4196	-1
Cn1c(=O)c2c(nc(N3CCCCCC3)n2CC(O)COc2ccccc2)n(C)c1=O (centres undefined)	-1	-7	.	.	16	?	1
CCC(=O)Nc1ccccc1N1CCN(S(C)(=O)=O)CC1	4	-9	6	-3	-2.1	2383	-10
CC(C)CC(c1nnnn1C(C)C)N1CCN(c2ccccc2)CC1 (centres undefined)	5	-13	6	4	3.9	2813	10
Cc1nc2ccccn2c1C(=O)N/N=C/c1cc(C)n(-c2ccc(Br)cc2)c1C	.	-7	.	.	.	23974*	1
CCC(C)=NNc1nc(-c2cc3cc(OC)ccc3oc2=O)cs1	-17	.	1	5	5.2	.	.
COc1cccc(NC(=O)C2CCC2)c1	-3	-42	10	6	3.6	3604	.
O=C(C1CCN(S(=O)(=O)N2CCOCC2)CC1)N1CCN(Cc2ccccc2)CC1	2	-19	5	-6	3.3	3438	18
COc1ccc([N+](=O)[O-])c(OC)c1C(=O)NC(=O)Nc1nc(C)cc(C)n1	0	-20	-6	10	-1.9	5467	-10
COc1ccc(Cc2nc3ccc(C(=O)NC4CCOC4)cc3o2)cc1 (centres undefined)	-3	-16	3	3	2.0	5742	-10
CCO[C@@H]1OC(C(=O)NC2CC2)=C[C@H](c2ccccc2)[C@H]1CCCO	.	4	.	.	.	3496	-7
C=CCc1c(C)nc(SCc2nc3ccccc3c(=O)[nH]2)[nH]c1=O	-4	-5	-2	4	-1.3	3496	6

Single records, from the list above. Screens in order: Sa ugtP lethal	PrP UTR inh	Mtb hypoxia inh	Mtb hypoxia inh growth	Sa RN4220 lethal	Bead autofluor	BJeLR viability
C=CCc1c(C)nc(SCc2nc3ccccc3c(=O)[nH]2)[nH]c1=O across the screens: -4	-5	-2	4	-1.3	3496	6
COc1ccc([N+](=O)[O-])c(OC)c1C(=O)NC(=O)Nc1nc(C)cc(C)n1 across the screens: 0	-20	-6	10	-1.9	5467	-10
CCC(=O)Nc1ccccc1N1CCN(S(C)(=O)=O)CC1 across the screens: 4	-9	6	-3	-2.1	2383	-10
O=C(C1CCN(S(=O)(=O)N2CCOCC2)CC1)N1CCN(Cc2ccccc2)CC1 across the screens: 2	-19	5	-6	3.3	3438	18

(continued)
SMILES	Sa ugtP lethal	PrP UTR inh	Mtb hypoxia inh	Mtb hypoxia inh growth	Sa RN4220 lethal	Bead autofluor	BJeLR viability
COc1ccc(NC(=O)c2cccc(NC(=O)c3ccco3)c2)c(OC)c1	10	-10	4	1	7.6	4932	1
Cc1nc(N)ncc1-c1ccc2c(c1)OCO2	6	-7	8	7	3.9	3616	1
O=C(O)c1ccc(Cl)c(S(=O)(=O)N(Cc2ccccc2)c2ccccc2)c1	-6	-37	17	4	7.6	3883	20
COc1ccccc1CNC(=O)CNCC1CCCO1 (centres undefined)	-1	-34	9	10	3.3	8840	0
O=C(CCc1nnc(C2CCCCC2)o1)NCc1ccc(F)c(F)c1	5	-13	-9	0	-1.1	3193	6
O=C(CSC1=NCCS1)Nc1ccc(S(=O)(=O)N2CCCCCC2)cc1	3	-9	5	13	-2.6	23340*	0
CCOc1ccc(S(=O)(=O)N2CCCC(C(=O)NCc3ccco3)C2)cc1 (centres undefined)	5	-6	4	7	-4.4	5153	-7
N#CCCN(Cc1cccnc1)C(=O)c1sc2cc(F)ccc2c1Cl	1	-15	-6	10	4.5	2470	5
COc1ccc(NC(=O)CN2CCN(S(=O)(=O)c3ccc(Cl)cc3)CC2)cc1	4	-17	-3	-2	3.3	22877*	-9
O=C(c1ccc(Br)s1)N1CCN(S(=O)(=O)c2ccccc2)CC1	15	-3	8	0	-2.4	5294	1
COc1ccc(CN(C(C)=O)c2ccccc2C(=O)O)cc1	1	-27	6	0	3.0	4690	8
O=C(O)C1CCN(S(=O)(=O)c2cccs2)CC1	7	-11	4	0	1.1	3743	-4
CN(C(=O)c1ccc(NC(=O)Cc2cccc(NC(=O)C3CCCN(C(=O)CCc4ccccc4)C3)c2)cc1)C1CCCC1 (centres undefined)	2	1	12	12	0.3	2981	.
Cc1noc(C)c1NC(=O)N(C)CC1Oc2ccc(NS(=O)(=O)c3c(C)noc3C)cc2C(=O)N(C(C)CO)CC1C (centres undefined)	-4	.	-4	9	1.4	.	.
COc1ccc(OC)c(-c2cc(C(=O)N3CCN(c4ncccn4)CC3)c3ccccc3n2)c1	-6	17	6	15	-5.7	?	-5
CC(=O)Nc1ccc(OCC(=O)NC(C)C(C)C)cc1 (centres undefined)	4	-18	.	.	2.2	5008	2
CCc1ccc(N2CCN(C(=O)c3ccc4c(c3)OCO4)CC2)cc1	9	-12	6	5	-1.2	7510	5
CC1CN(C(C)CO)C(=O)c2cc(NC(=O)Cc3ccccc3)ccc2OC1CN(C)C(=O)Nc1ccccc1 (centres undefined)	-2	.	11	15	2.7	.	.
Cc1ccc(Cl)cc1NC(=O)Cn1cc2c(n1)CCCC2	-2	5	.	.	2.3	6236	-4
Cc1ccc(N=Cc2c(O)n(C)c(=O)n(C)c2=O)nc1	6	1	19	10	3.7	9635	-7
CC(C)Cn1c(N)c(C(=O)COC(=O)Cc2cccc(C(F)(F)F)c2)c(=O)n(C)c1=O	-12	-8	-9	-2	-1.5	5849	2
CCOC(=O)c1ccc(N2CCCCC2)c(NS(=O)(=O)c2ccc(C)cc2)c1	78	-17	8	-1	2.1	4321	8
C=CCN(c1ccccc1)S(=O)(=O)c1cccc(C(=O)N2CCCC2)c1	5	-21	3	1	4.1	?	-1
CNC(=O)C1CC(=O)N(CCCc2ccccc2)C(=Nc2ccccc2)S1 (centres undefined)	9	11	17	7	5.4	4463	-11
Cc1ccc(Cl)cc1-n1c(=O)cc(N2CCN(C(=O)c3ccco3)CC2)[nH]c1=O	-1	-6	-7	-4	4.1	6773	-15
C[C@]12CCC(OC(=O)CCC(=O)O)CC1=CCC1C2CC[C@]2(C)C(=O)CCC12 (some centres undefined)	11	-24	6	-9	13	3235	-13
Cn1cccc1-c1nc2ccc(NC(=O)c3ccccc3)cc2[nH]1	-2	-15	.	.	-6.8	4892	1
CCN(c1cccc(C)c1)S(=O)(=O)c1cc2c3c(c1)CCN3C(=O)CC2	5	-10	4	4	13	4779	11
CCOc1cc(/C=C2\C(=N)N3N=C(S(C)(=O)=O)SC3=NC2=O)ccc1OCCOc1cccc(OC)c1	-10	-10	22	24	14	3733	-8
C=C(C)CNC(=S)N/N=C/C1=CCC2CC1C2(C)C (centres undefined)	.	-22	.	.	.	2133	-4
CC(=O)Nc1ccc(S(=O)(=O)NCc2nnnn2-c2ccc(F)cc2)cc1	4	-6	-1	9	-2.4	?	7
CCc1ccc(-c2cc(C)no2)cc1S(=O)(=O)N1CCN(c2ccccc2OC)CC1	4	-8	11	8	4.1	5093	3
Cc1cccc(OCC(=O)NCc2ccc(F)cc2)c1	7	6	.	.	5.8	3037	-18
CC1CCCN(C(=O)c2ccccc2OC2CCN(S(C)(=O)=O)CC2)C1 (centres undefined)	.	-13	.	.	.	3415	11
O=C(CNC(=O)c1ccccc1Cl)Nc1ccncc1	1	-2	9	7	1.0	4345	.
c1ccc2c(c1)NC1(CCCCCC1)n1c-2nc2ccccc21	7	-74	9	11	4.3	.	-2
CCOc1ccc(-c2c(C(=O)N/N=C(\C)c3ccccc3OC)nnn2-c2nonc2N)cc1	.	-40	.	.	.	4314	1
CC(C)(C)N(C=C(Cl)Cl)C(=O)NC1CCCCC1	-1	9	.	.	2.8	2615	6
COc1ccc(C(=O)NCCCn2cccn2)cc1OC1CCN(C(C)=O)CC1	0	-30	8	4	1.6	5056	-3
Clc1nc2ccccc2cc1-c1nnn(-c2ccccc2)n1	-1	-30	12	2	2.6	3150	4
CCOc1cc(/C=N/NC(=O)c2ccc(CSc3nncn3C)cc2)ccc1OCC(=O)N1CCOCC1	.	-25	.	.	.	4589	-2
C=CCn1c(C)cc(C(=O)COC(=O)c2ccc(N)c([N+](=O)[O-])c2)c1C	-4	-110	0	7	2.8	8168	-12
CSCCC(NC(=O)C1CCC(C)CC1)C(=O)O (centres undefined)	-5	1	2	11	3.7	23567*	7
CCOC(=O)c1c(N)c2cc([N+](=O)[O-])ccc2n1C	-1	-27	1	-1	-0.7	3451	-3
CC(C)(C)C(=O)N1CCC(O)(CS(=O)(=O)Cc2ccc(Cl)cc2)CC1	5	-25	17	9	4.0	4645	-1
Cc1cc(=O)n2nc(N3CCC(C(=O)NCc4ccccc4)CC3)sc2n1	4	3	-6	2	-0.8	4919	-5
CCOC(=O)CSc1ncnc2c1c(-c1ccccc1)cn2-c1ccc(OC)cc1	29	-7	4	1	2.2	2071	8
Cc1c(C(=O)Nc2ccc(C(F)(F)F)cc2)sc2ncn(CC(=O)N3CCN(c4ccccn4)CC3)c(=O)c12	.	-18	.	.	.	5250	-6
O=C(O)CCCN1C(=O)/C(=C/c2ccncc2)SC1=S	10	-11	7	17	5.3	4598	13
CCCNC(=O)c1ccc(N2CCC3(CC2)CC(c2cccc(Br)c2)=NO3)c(NC(=O)c2ccc(Br)cc2)c1	-2	-10	-8	2	-4.8	3900	14

Remaining list, next part:
SMILES	Sa ugtP lethal	PrP UTR inh	Mtb hypoxia inh	Mtb hypoxia inh growth	Sa RN4220 lethal	Bead autofluor	BJeLR viability
Cc1ccc(-n2c(C)cc(/C=N/Nc3ccc([N+](=O)[O-])cn3)c2C)cc1	.	-18	.	.	.	?	4
CC(=O)C1=C(O)C(=O)N(c2ccc(O)cc2)C1c1cccc(F)c1 (centres undefined)	-4	-11	2	2	1.9	4076	3
COc1ccc2[nH]c3c(c2c1)CCNC3C1CC=C(C)CC1 (centres undefined)	11	-20	2	-5	2.0	4253	16
CCCCn1c(N)c(N(CCC(C)C)C(=O)CN2C(=O)C3CCCCC3C2=O)c(=O)[nH]c1=O (centres undefined)	4	-2	-3	6	1.6	5350	-19
NC(=O)c1nc(-c2ccccc2)c(-c2ccccc2)[nH]c1=O	11	-4	9	2	-1.3	5862	-2
Cc1ccc(C(=O)Nc2nccc(-c3cccs3)n2)cc1	-3	-5	4	2	10	4603	0
